TRPML1 blocker: blocks the human TRPML1 channel. TRPML1-inducible cells, Ca2+ dye fluorescence, FDSS; stronger effect = lower value; inhibition of EC80 agonist-evoked calcium signal. activity change, negative = inhibition, % (concentration not given with the values). 390,000 tested, 0.02% active. Q9GZU1; in the data active means activity change below about -50%; inconclusive means about -30% to -50%; inactive means above about -30%;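 further: stimulus is agonist 54-4 at its EC80 concentration; on the % scale 0 is the no-effect control and ±100 the full control effect; compound concentration not given in the record; the text of the record puts the active cut at -80%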
Target sequence (Q9GZU1 whole entry, looked up): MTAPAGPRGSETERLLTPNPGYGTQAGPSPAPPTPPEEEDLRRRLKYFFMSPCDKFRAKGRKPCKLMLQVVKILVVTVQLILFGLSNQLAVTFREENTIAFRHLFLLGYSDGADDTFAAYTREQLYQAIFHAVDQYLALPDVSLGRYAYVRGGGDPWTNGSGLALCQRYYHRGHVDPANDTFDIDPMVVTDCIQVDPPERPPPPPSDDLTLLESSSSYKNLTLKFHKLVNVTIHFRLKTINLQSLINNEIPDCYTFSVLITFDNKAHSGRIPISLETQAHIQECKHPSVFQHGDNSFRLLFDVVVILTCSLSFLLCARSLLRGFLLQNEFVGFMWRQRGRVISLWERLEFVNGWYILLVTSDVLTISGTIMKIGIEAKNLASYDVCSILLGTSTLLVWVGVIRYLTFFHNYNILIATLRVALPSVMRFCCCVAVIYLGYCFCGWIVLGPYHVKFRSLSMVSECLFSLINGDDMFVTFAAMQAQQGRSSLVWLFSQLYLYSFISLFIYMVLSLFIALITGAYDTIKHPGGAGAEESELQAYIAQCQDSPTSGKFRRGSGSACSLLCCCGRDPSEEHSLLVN
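TRPML1-DL cells, Tet-induced overnight (~16 h, 37 °C) at 1,500 cells/well, were loaded with Ca8 no-wash dye plus quencher for 45-90 min at room temperature. Compounds were pinned during FDSS kinetic reading; agonist 54-4 at EC80 (4 uM final) then added.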
Six1-Eya2 blk: blocks human Six1 binding to Eya2. AlphaScreen GST-Six1/His-Eya2 binding, biochemical; stronger effect = lower value; control for the full effect not named in the record. activity change, % (concentration not given with the values). 360,000 tested, 0.56% active; in the data active = activity change below about -65%; inconclusive = about -30% to -65%; inactive = above about -30%; further: on the % scale 0 is the no-effect control and ±100 the full control effect
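Six1/Eya2 binding was read as AlphaScreen signal after compounds were pinned into GST-Six1 plus His-tagged Eya2 (5X stock 250/500 nM) in pH 8.0 Tris/NaCl/TCEP buffer, beads added, then incubated 1 h, 37 C, dark.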
D2 agonist: agonists of human D2 dopamine receptor (beta-arrestin) | P14416 | DiscoveRx PathHunter D2 beta-arrestin, luminescence, 90 min; 100% = 57 uM dopamine signal | activation, % (test concentration not listed) | 360,000 tested, 0.084% active; in the data active = activation above about 40%; inconclusive = about 15% to 40%; inactive = below about 15%; further: compound concentration not given in the record; the text of the record calls up to 30% inactive
Target sequence (P14416 whole entry, looked up): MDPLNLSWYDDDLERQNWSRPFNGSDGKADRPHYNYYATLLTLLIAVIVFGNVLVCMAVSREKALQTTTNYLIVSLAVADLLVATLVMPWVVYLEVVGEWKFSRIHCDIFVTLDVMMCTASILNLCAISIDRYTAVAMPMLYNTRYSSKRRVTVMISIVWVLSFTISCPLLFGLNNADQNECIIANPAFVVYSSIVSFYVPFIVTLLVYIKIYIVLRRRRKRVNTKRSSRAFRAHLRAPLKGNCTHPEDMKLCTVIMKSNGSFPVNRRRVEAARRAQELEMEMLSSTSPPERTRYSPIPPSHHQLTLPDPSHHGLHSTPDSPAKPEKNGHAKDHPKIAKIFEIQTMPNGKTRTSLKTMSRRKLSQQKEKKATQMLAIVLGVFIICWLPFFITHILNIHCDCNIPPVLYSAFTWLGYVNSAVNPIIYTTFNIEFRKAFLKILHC
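Agonist mode: compounds alone added to overnight-plated D2 PathHunter cells for 90 min at 37 C, with 57 uM final dopamine (EC100) defining full response. Beta-arrestin recruitment detected by chemiluminescent reagent, read after 1 h at ambient temperature.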
PINK1 expr mod: modulators of PINK1 expression. AID 624263. PINK1 immunofluorescence, high-content cytometry, 24 h. Potency, µM (top dose mostly 76.6 µM), for the others: at the top dose activation (PINK1 increase), actives largely listed as activators. 410,000 tested, 0.2% active; active = well fitted activation curve with a large enough effect; inconclusive = small, poorly fitted or top-dose-only effect; inactive = flat fitted curve, though single readings scatter; cell line not stated here;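 further: potency means the concentration at half of the fitted maximal effect; % of control where 0% means no effect; nearly all actives have a fitted effect of over 65% in size; a mitochondrial uncoupler was the plate control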
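Stable cell line, 250 cells/well, 12 h attachment; compounds pinned at 5 concentrations, 24 h; CCCP control. Fixed with nuclear dye, primary antibodies 12 h at 10 degrees C, secondary plus cell stain; laser-scanning cytometer read.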
CtBP-E1A blk: inhibitors of CtBP/E1A interaction. AlphaScreen GST-E1A/His-CtBP binding, 1536-well; stronger effect = lower value; control for the full effect not named in the record. activity change, % (concentration not given with the values). 340,000 tested, 0.49% active. AID 651724; in the data active means activity change below about -65%; inconclusive means about -30% to -65%; inactive means above about -30%; further: on the % scale 0 is the no-effect control and ±100 the full control effect
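AlphaScreen with 125 nM GST-E1A and 125 nM His-CtBP (5X stocks) in Tris pH 8.0, 300 mM NaCl, BSA, Tween 20, TCEP. Compounds preincubated 2 h at 37 deg C, then glutathione donor/nickel acceptor beads added for 1 h at 37 deg C in dark.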
TRPML1 ag: human mucolipin-1 channel agonism; TRPML1-expressing cells, Ca2+ dye fluorescence, FDSS; host cell line not named in the record; reference of the full effect not given here; AID 624414; activation, % (concentration not given with the values); 410,000 tested, 0.12% active; Q9GZU1; in the data active = activation above about 50%; inconclusive = about 30% to 50%; inactive = below about 30%; further: 0% is about no effect; the text of the record puts the active cut at 80%
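Agonist activity was taken from a 110 s kinetic Ca2+ dye read on the FDSS after pinning compounds onto TRPML1-DL cells. The cells were seeded at 1,500/well with Tet inducer, incubated about 16 h, then dye-loaded at room temperature.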
The depositor's hits bear a star; u = inconclusive; x = not tested or not shown; [ ] = dose if it differs, or a comment.

The line under a structure holds: TRPML1 blocker	PINK1 expr mod	CtBP-E1A blk	Six1-Eya2 blk	D2 agonist	TRPML1 ag
1) Cc1cccc(-n2nc3c(c2NC(=O)c2c(F)cccc2F)CS(=O)(=O)C3)c1C
  -15	7.5%	0	4	-1.7	-0.7
2) O=C(Cn1cnc2cc([N+](=O)[O-])ccc2c1=O)Nc1ccc(N2CCOCC2)cc1
  10	1.1%	-12	-12	-2.9	-0.3
3) O=C(O)c1ccccc1NC(c1ccccc1)c1ccc2cccnc2c1O (stereo not drawn)
  29	-0.5%	-20	-84*	-7.4	1.4
4) CCOC(=O)c1cc(S(=O)(=O)Nc2c(C)cc(C)cc2C)[nH]n1
  -16	0.6%	x	x	x	1.2
5) CC1(C)CC(CC(=O)Nc2ccc([N+](=O)[O-])cc2)C(=O)O1 (stereo not drawn)
  -12	0.3%	6	-4	-2.6	1.3
6) Cc1c(C#N)c2n(c1C)CCCC(=O)N2
  31	0.4%	1	-1	7.0	0.2
7) CCOC1=C2[C@@H](CN(S(=O)(=O)c3ccccc3C)[C@H]2c2ccc(Cl)cc2)[C@H]2C(=O)N(c3ccccc3)C(=O)[C@H]2C1
  3	9.2%	1	-1	-3.9	0.4
8) COc1ccccc1S(=O)(=O)N(C)C[C@H]1Oc2ncc(Br)cc2C(=O)N([C@H](C)CO)C[C@H]1C
  1	-0.9%	5	1	3.2	-0.9
9) O=C(NC1CCCCC1)c1cccc2c(-c3ccc(F)c(F)c3)coc12
  x	2.0%	6	2	-6.5	-1.0
10) CNS(=O)(=O)c1ccc(CNC[C@H]2O[C@@H](n3cnc4c(=O)[nH]c(N)nc43)[C@H](O)[C@@H]2O)cc1
  -3	0.5%	5	-2	2.6	0.3
11) O=C(CSc1ccccn1)Nc1ccc2c(c1)oc1ccccc12
  -13	1.6%	5	-3	0.0	2.8
12) CC(NC(=O)c1ccc2c(c1)N(Cc1ccc(Cl)cc1)C(=O)c1ccccc1S2(=O)=O)c1ccccc1 (stereo not drawn)
  -7	19%	x	x	x	0.0
13) Cn1cccc1-c1cc2n(n1)CCC(=O)N2CCCC(=O)NCc1ccc(F)cc1
  23	4.3%	x	x	x	0.7
14) COc1cc(/C=C2\NC(=O)NC2=O)cc(Br)c1OC
  15	-1.2%	8	-6	-3.2	-0.8
15) Cc1cc(NC(=O)CSc2nnc(NCc3ccccc3)s2)no1
  -15	-0.3%	x	3	1.3	0.6
16) Cc1cccc(NC(=O)/C(C#N)=C/c2ccc(Sc3ccccc3)o2)c1C
  78	7.2%	x	12	-4.4	7.6
17) C/C=C(/C(=C/C)c1ccc(O)cc1)c1ccc(O)cc1
  -13	-1.0%	0	-5	-2.6	2.1
18) O=C(N/N=C/c1ccco1)c1cc([N+](=O)[O-])cc([N+](=O)[O-])c1
  10	-1.5%	-3	-9	4.8	0.6
19) CCOc1ccc(CCN2C(=O)CCC2(C)C(=O)NC(C)CC)cc1OCC (stereo not drawn)
  -4	12%[38.3 µM]	15	8	1.5	-0.3
20) Cc1ccc(CN2C(=O)CCC2C(=O)N2CCN(c3ccccc3)CC2)cc1 (stereo not drawn)
  -3	-0.9%	x	10	0.0	-0.4

The line under a structure holds: TRPML1 blocker	PINK1 expr mod	CtBP-E1A blk	Six1-Eya2 blk	D2 agonist	TRPML1 ag
21) COc1ccc(S(=O)(=O)Nc2ccccn2)c(C)c1C
  -3	-1.3%	0	10	-0.9	0.3
22) CCOC(=O)c1cc(=O)c2c([N+](=O)[O-])ccc(OC)c2o1
  -11	0.4%	-13	-22	-2.0	-0.4
23) CCOC(=O)CCCSc1nnc(CCCCCN2C(=O)c3cccc4cccc(c34)C2=O)o1
  9	1.1%	9	7	-2.0	1.9
24) COc1cccc(-n2c(SCc3ccccc3C)nc3c([nH]c4ccccc43)c2=O)c1
  0	0.6%	x	x	x	1.2
25) COc1ccc(C(=O)/C(=C/N(C)C)S(=O)(=O)c2ccccc2)cc1
  3	-0.8%	0	4	0.9	0.8
26) Cc1coc2cc3oc(=O)c(CCC(=O)NCC(=O)O)c(C)c3cc12
  x	-1.0%	-4	-5	-6.2	x
27) O=C(NCCC(=O)N1CCN(S(=O)(=O)c2ccccc2F)CC1)Nc1ccccc1
  12	-0.5%	-4	11	2.7	1.1
28) CC(C)Oc1ccc(CSc2ncn[nH]2)cc1
  5	2.8%	0	0	-4.0	0.5
29) Cc1ccc(-c2cn(-c3ccccc3F)c(=S)[nH]2)cc1
  -9	2.1%	-21	-12	-1.1	-0.9
30) Cc1ccccc1NC(=O)COC(=O)CCSc1ccccc1
  -9	-0.4%	0	8	2.8	1.4
31) COC(=O)CNc1cc(S(=O)(=O)N2CCCCC2)ccc1Oc1cccc(C)c1
  15	-0.9%	-3	18	3.4	2.7
32) COc1ccccc1-c1noc(CCCC(=O)N2CCOCC2)n1
  4	3.1%	x	-3	-3.8	-0.7
33) CC(C)CN(C(=O)CSc1nnnn1C)C1CCS(=O)(=O)C1 (stereo not drawn)
  -1	2.3%	-1	5	-6.1	0.1
34) O=Cc1c[nH]c2ccc(NC(=O)OCc3ccccc3)cc12
  -12	12%	-4	-18	-2.3	0.0
35) NCCC(=O)N1c2ccccc2Sc2ccc(Cl)cc21
  -11	-0.2%	-11	-1	-5.3	u
36) COCC(C)n1c(SCc2ccc(OC)c(F)c2)nc2ccccc2c1=O (stereo not drawn)
  65	1.1%	7	5	2.6	4.1
37) Cc1nc2cc(-c3ccccc3)nn2c(C)c1CCC(=O)NCc1cccc(Cl)c1
  3	0.7%	x	x	x	0.0
38) Clc1nccnc1N/N=C/c1ccc(Br)cc1
  -10	0.3%	-9	-6	-0.5	-0.1
39) Nc1c(N(CCO)C(=O)c2ccccc2OCc2ccccc2Cl)c(=O)[nH]c(=O)n1Cc1ccccc1
  -6	1.1%	7	1	-1.5	0.7
40) Cc1nc2cc(NC(=O)N3CCCC3)ccc2n1C
  2	1.9%	8	0	-3.6	-0.6

The line under a structure holds: TRPML1 blocker	PINK1 expr mod	CtBP-E1A blk	Six1-Eya2 blk	D2 agonist	TRPML1 ag
41) CN(C)N1C(N)=C(C#N)C(c2ccc(Cl)cc2)C2=C1CCCC2=O (stereo not drawn)
  -11	2.1%	18	-3	-2.5	-0.2
42) CN(C(=O)COC(=O)C1CSC2(C)CCC(=O)N12)c1ccccc1 (stereo not drawn)
  21	-0.7%	-2	13	-2.6	0.7
43) Brc1ccc(-c2nc3c4ccccc4ccn3c2Cc2ccccc2)cc1
  -9	u	4	7	-8.5	0.6
44) Cc1c(NS(=O)(=O)c2cccs2)c(=O)n(-c2ccccc2)n1C
  -9	1.1%	6	0	-5.0	-0.4
45) CC1CC(C)CN(C(=O)c2ccc3c(c2)OCCO3)C1 (stereo not drawn)
  5	-1.5%	2	2	-4.6	-0.4
46) CCOC(=O)c1ccccc1NC(=O)CSc1nc(=O)[nH]c2c1CCCC2
  22	0.3%	x	x	x	0.5
47) O=C1N/C(=C/c2ccco2)C(=O)N1Cc1ccccc1F
  -6	3.5%	-3	-23	-0.8	0.9
48) CCn1nnnc1-c1ccc(OC)c(S(=O)(=O)N2CCCCC2)c1
  -16	2.5%	4	1	-0.3	1.1
49) O=C(NC(CCl)c1ccccc1)c1ccc(Cl)cc1 (stereo not drawn)
  5	0.7%	4	5	4.8	1.3
50) Cc1cc(/C=N/n2cnnc2)c(C)n1-c1ccc(C(=O)O)cc1
  -15	x	0	22	-1.2	-0.4
51) O=S(=O)(Nc1cccc2cccnc12)C1CC1
  -9	-1.5%	x	x	x	-0.1
52) O=C(Nc1ccccc1F)c1ccc2sc([C@H]3C[C@H](O)[C@@H](CO)O3)nc2c1
  x	2.4%	-4	-3	-4.4	-0.3
53) Cn1ncc2c(=O)n(CC(=O)NC34CC5CC(CC(C5)C3)C4)cnc21
  0	-0.8%	1	1	-0.5	0.5
54) O=C(COC(=O)c1cccs1)Nc1cc(S(=O)(=O)N2CCOCC2)ccc1Cl
  13	-0.8%	-13	0	-3.0	0.9
55) CSc1ncc(C(=O)NCc2ccccc2Cl)c(C(F)(F)F)n1
  5	3.0%	x	x	x	1.0
56) Cc1cc(N2CCN(C)CC2)nc2ccc(NC(=S)N3CCN(c4ccccn4)CC3)cc12
  24	-0.1%	-9	-5	1.0	0.4
57) O=C(CCCc1ccccc1)NC1CC(=O)N(c2ccc(Cl)cc2)C1 (stereo not drawn)
  -4	0.5%	x	x	x	0.2
58) CCCCOc1ccc(C(=O)NCC2(N3CCN(C)CC3)CCCCC2)cc1
  -3	0.0%	x	x	x	0.7
59) Cc1cccc(N(CC(=O)Nc2c(C)n(C)n(-c3ccccc3)c2=O)S(C)(=O)=O)c1C
  1	2.5%[38.3 µM]	-10	-1	-2.8	0.1
60) CC(=O)c1ccc(N=C2SCCCN2C(=O)C2CCCCC2)cc1
  5	2.8%	1	7	-3.7	0.4

The line under a structure holds: TRPML1 blocker	PINK1 expr mod	CtBP-E1A blk	Six1-Eya2 blk	D2 agonist	TRPML1 ag
61) CCN(CC)CCCN1C=C2C(=O)C(C)(OC(=O)CCC(=O)OC)C(=O)C=C2C=C1C1CC1 (stereo not drawn)
  72	0.5%	-3	-12	1.8	0.4
62) COc1ccc(-c2nnc3ccc(SC(C(C)=O)C(C)=O)nn23)cc1OC
  -2	-3.1%[38.3 µM]	11	-8	-0.7	0.1
63) CCN1CCN(S(=O)(=O)c2ccc(Cl)c(C(=O)N(CC(C)C)C3CCS(=O)(=O)C3)c2)CC1 (stereo not drawn)
  0	0.4%	3	3	-4.1	0.6
64) Cc1ccc(Cl)cc1N1CCN(C(=O)c2ccc3c(c2)N(Cc2ccccc2)CCS3)CC1
  -21	1.2%	x	x	x	-0.5

Filtered by structure, the entries above with a COOH group.
The line under a structure holds: TRPML1 blocker	PINK1 expr mod	CtBP-E1A blk	Six1-Eya2 blk	D2 agonist	TRPML1 ag
3) O=C(O)c1ccccc1NC(c1ccccc1)c1ccc2cccnc2c1O (stereo not drawn)
  29	-0.5%	-20	-84*	-7.4	1.4
26) Cc1coc2cc3oc(=O)c(CCC(=O)NCC(=O)O)c(C)c3cc12
  x	-1.0%	-4	-5	-6.2	x
50) Cc1cc(/C=N/n2cnnc2)c(C)n1-c1ccc(C(=O)O)cc1
  -15	x	0	22	-1.2	-0.4

Screening results: PubChem, National Center for Advancing Translational Sciences (NCATS)
